Cruzain Triton: blocks cruzain activity in presence of Triton detergent. P25779. purified cruzain, Z-FR-AMC fluorescence, 0.01% Triton. Potency, µM, inactives show max response, negative = inhibition, hits mostly inhibitors. actives 0.43% (n = 200,000). AID 1478;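 also: plate controls were neutral wells for no effect and buffer without enzyme for full effect; nearly all actives have a fitted effect of over 40% in size; top concentration of the series not given in the record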
Target sequence (P25779 123-467 limits assumed): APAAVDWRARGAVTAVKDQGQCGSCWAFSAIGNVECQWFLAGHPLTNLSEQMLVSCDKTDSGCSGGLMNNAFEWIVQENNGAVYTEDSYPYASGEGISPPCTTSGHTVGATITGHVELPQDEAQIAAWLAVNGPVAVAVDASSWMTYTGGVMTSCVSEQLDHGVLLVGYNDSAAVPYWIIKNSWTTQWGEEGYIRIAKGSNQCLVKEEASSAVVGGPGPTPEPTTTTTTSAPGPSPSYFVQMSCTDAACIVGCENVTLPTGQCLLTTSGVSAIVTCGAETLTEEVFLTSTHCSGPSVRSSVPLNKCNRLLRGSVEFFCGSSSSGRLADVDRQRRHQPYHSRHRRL
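Detergent-containing run (0.01% Triton X-100) in acetate buffer pH 5.5 with 5 mM DTT: enzyme at 1.5 nM final, 15 min compound preincubation at room temperature, then 2 uM Z-FR-AMC substrate. Activity taken as 60 s fluorescence increase at 360/450 nm.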
Cruzain inh noDet: blocks cruzain activity in detergent-free assay. P25779. AID 1476. Potency, µM, without a hit: max response, negative = inhibition, usual class: inhibitors. purified cruzain, Z-FR-AMC fluorescence, no detergent. actives 2.3% (n = 200,000);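 also: plate controls were enzyme without inhibitor for no effect and buffer without enzyme for full effect; nearly all actives have a fitted effect of over 40% in size; top concentration of the series not given in the record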
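Detergent-free condition (0.00005% Triton X-100) in acetate buffer pH 5.5 with DTT. 1.5 nM enzyme and compound were pre-mixed 15 min, then 2 uM Z-FR-AMC substrate added; reaction progress from fluorescence change between first and third reads (60 s).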
SARS PLpro yeast: blocks SARS-CoV papain-like protease in a yeast assay. Potency, µM (top dose mostly 32.9 µM), without a hit: at the top dose activity, positive = growth rescue. S. cerevisiae expressing SARS-CoV PLpro, growth rescue; control for the full effect not named in the record. actives 0.19% (n = 330,000); active means well fitted rising curve with a large enough effect; inconclusive means small, poorly fitted or top-dose-only effect; inactive means no such curve, though single readings can be large or run the other way; also: 0% is about no effect; nearly all actives have a fitted effect of over 55% in size; growth read by luminescence after 48 h
LASV entry inh: Lassa virus entry inhibition. Potency, µM (top dose mostly 37.9 µM), for inactives: top-dose activity change, negative = inhibition, most hits filed as inhibitors. actives 1.2% (n = 300,000). Lassa virus pseudotype entry inhibition, cell reporter; control for the full effect not named in the record. AID 540256; active means well fitted inhibition curve with a large enough effect; inconclusive means small, poorly fitted or top-dose-only effect, or effect the other way; inactive means flat fitted curve, though single readings scatter; tested in HEK293 cells; also: % is scaled to controls: 0 for no effect and ±100 for the full control effect; nearly all actives have a fitted effect of over 50% in size; luciferase read-out
RE007 growth inh: less growth of the S. pombe RE007 Vpr strain; S. pombe RE007 Vpr strain, BacTiter-Glo ATP luminescence, 24 h; control for the full effect not named in the record; Potency, µM (top dose mostly 92.2 µM), inactives show top-dose activity change, negative = less growth; actives 0.21% (n = 360,000); active = well fitted falling curve with a large enough effect; inconclusive = small, poorly fitted or top-dose-only effect; inactive = no such curve, though single readings can be large or run the other way;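 also: % is scaled to controls: 0 for no effect and ±100 for the full control effect; nearly all actives have a fitted effect of over 50% in size; the assay follows cell death caused by Vpr and the record does not say whether a fall means rescue or toxicity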
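Fission yeast strain RE007, carrying one chromosomally integrated HIV-1 vpr copy, was seeded at OD 0.01 in PMG+AL medium with 23 nL pinned compound. After 24 h at 30 °C and 99% humidity, viability was read by BacTiter-Glo luminescence.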
NS1 inh: inhibitors of influenza NS1 protein function. S. cerevisiae slowed by influenza A NS1, growth recovery by OD600. Potency, µM (series often up to 46.1 µM), without a hit: at the highest dose activity, positive = more growth. actives 0.4% (n = 270,000). AID 2326; active means well fitted rising curve with a large enough effect; inconclusive means small, poorly fitted or top-dose-only effect; inactive means no such curve, though single readings can be large or run the other way; also: nearly all actives have a fitted effect of over 50% in size
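Growth recovery, yeast-based: influenza A NS1 expressed in S. cerevisiae causes slow growth, and suppressors are detected by OD600. The parent strain without NS1 is used as positive control.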
StopGo reporter: lowers the luciferase signal of an FMDV 2A StopGo reporter; Potency, µM (top dose mostly 57.9 µM), inactives show top-dose signal change, negative = less light; actives 1.2% (n = 410,000); human cells with a luciferase reporter of 2A StopGo recoding; control for the full effect not named in the record; AID 1159524; active = well fitted falling curve with a large enough effect; inconclusive = small, poorly fitted or top-dose-only effect; inactive = no such curve, though single readings can be large or run the other way; tested in HEK293T cells; also: % is scaled to controls: 0 for no effect and ±100 for the full control effect; nearly all actives have a fitted effect of over 45% in size; luciferase light after 4 h
Marburg entry inh: blocks Marburg virus binding to or entry into cells; Potency, µM (doses to about 37.8 µM), without a hit: at the top dose activity change, negative = inhibition, most hits filed as inhibitors; Marburg virus pseudotyped entry inhibition, cell reporter; control for the full effect not named in the record; about a third of the inactives were read at about 46 µM; actives 1.8% (n = 300,000); active = well fitted inhibition curve with a large enough effect; inconclusive = small, poorly fitted or top-dose-only effect, or effect the other way; inactive = flat fitted curve, though single readings scatter; tested in HEK293 cells; about a fifth of its hits are not listed in these tables; also: % is scaled to controls: 0 for no effect and ±100 for the full control effect; luciferase read-out
An asterisk follows results filed as active; ? = inconclusive; nt = no result given; [ ] = dose if it differs, or a comment. Unless noted, calls follow the shape of the dose curve; as a rule, active = well fitted curve in the direction sought with a large enough effect; inconclusive = small, poorly fitted or top-dose-only effect, or another doubt; inactive = no such curve, though single readings can be large; an effect the other way counts as inactive or inconclusive. Potency is read from the fitted curve at half-maximal effect.

SMILES | Cruzain Triton | Cruzain inh noDet | SARS PLpro yeast | LASV entry inh | RE007 growth inh | NS1 inh | StopGo reporter | Marburg entry inh
Cc1csc(=O)n1CCC(=O)O | 2.5% | 4% | 2% | 11% | 0% | 0% | 20% | 15%
CN(C)c1ccc(C2CC(c3c(O)n(C4CCCCC4)c(=O)[nH]c3=O)=Nc3ccccc3S2)cc1 (stereo not drawn) | -4.9% | 13% | nt | 15%[46.1 µM] | nt | nt | ? | 1%[46.1 µM]
Cc1nc2ncccn2c1-c1csc(Nc2ccc(O)cc2)n1 | nt | nt | 0% | nt | -22% | 11% | -17% | nt
C/C(Cn1nnc([N+](=O)[O-])n1)=N\NC(=O)c1ccc(O)cc1O | -4.6% | -1% | ? | -2% | -18% | ? | ? | ?
CC(=O)c1ccc(OCCCCCCCOc2ccc(C(C)=O)cc2)cc1 | nt | nt | 1% | -9%[46.1 µM] | 15% | 15% | 1% | 1%[46.1 µM]
O=C(COC(=O)c1cccc(OC(F)F)c1)NC1CCCC1 | nt | nt | -1% | -4%[46.1 µM] | 3% | 2% | 10% | ?
Cc1ccc(S(=O)(=O)N2CCN(C(=O)COC(=O)Cc3ccccc3)CC2)c(C)c1 | nt | nt | 2% | 14% | -10% | nt | -14% | 10%[46.1 µM]
NC(=O)c1ccccc1Nc1nc2nc3ccccc3c(=O)n2cc1Br | nt | nt | 0% | -11%[46.1 µM] | -20% | 0% | 10% | ?
CC(CCc1ccccc1)NC(=O)Cn1ncc2c3ccccc3n(Cc3ccccc3)c2c1=O (stereo not drawn) | -1.5% | 3% | nt | 12%[46.1 µM] | nt | nt | 13% | -1%[46.1 µM]
COc1ccc(C2C3=C(CC(C)(C)CC3=O)Oc3ncn(CC(C)C)c(=N)c32)cc1 (stereo not drawn) | 2.6% | 1% | -17% | -14% | -2% | -60% | -29% | -7%
CCc1nc(Oc2cccc(F)c2)c2oc3ccccc3c2n1 | -4.8% | ? | nt | 0%[46.1 µM] | nt | nt | 2% | nt
O=C1C(C=NCCN2CCOCC2)=C(O)c2ccccc21 | -6.7% | -16% | 5% | 3% | 25% | 7% | 22% | ?
Cn1c(Cn2c(=O)sc3ccccc32)nnc1SCc1cccc(F)c1 | -1.9% | -14% | 1% | nt | 6% | -5% | 2% | nt
COc1ccc(C(=O)Nc2cc(C)cc(C)c2)cc1S(=O)(=O)N1CCOCC1 | -1.9% | ? | 3% | 2% | 8% | 7% | -6% | -18%
CCOC(=O)c1c(-c2ccc(OC)cc2)csc1NC(=O)CSc1nnc(C)c(=O)[nH]1 | nt | nt | 0% | -6% | 4% | nt | 6% | 10%[46.1 µM]
O=C(COc1ccc(Cl)cc1Br)NCC(c1ccco1)N1CCCC1 (stereo not drawn) | nt | nt | 3% | 0% | -1% | nt | -13% | ?
C/C=C/C=N/Nc1nc(C)cc(=O)[nH]1 | nt | nt | 0% | 17% | 9% | nt | -1% | 0%[46.1 µM]
N#Cc1cnc(NOCc2ccc(Cl)cc2)nc1 | nt | nt | -3% | 10% | -24% | nt | 1% | 3%
CCN(CC)CCCNC(=O)C(C)n1nc(C)c2sc3ccccc3c2c1=O (stereo not drawn) | 0.1% | 3% | 5% | 1% | -3% | -1% | -14% | ?
Cc1ccc(Nc2nc(CSc3n[nH]c(N)n3)cs2)cc1 | nt | nt | -1% | nt | -2% | -6% | 8% | nt
Cc1[nH]c2ccc(-c3nnc(SCC(=O)c4ccccc4F)o3)cc2c1C | 1.3% | ? | -4% | 8.9µM* | -5% | 12% | -1% | ?
O=C(Nc1ccc(NC(=S)NC(=O)c2ccccc2Cl)cc1)c1cccc(Cl)c1 | nt | nt | nt | ? | 5% | nt | -13% | ?
NS(=O)(=O)c1ccc(NC(=O)COC(=O)CCC2CCCCC2)cc1 | -6.0% | -10% | 12% | 0% | 8% | -7% | -16% | -1%
CCOc1ccc(-n2c(=O)cc(N3CCN(c4ccccc4)CC3)[nH]c2=O)cc1 | 1.7% | 2µM* | 3% | 14% | -17% | -1% | -12% | 3%
COc1cccc(-c2nc(CS(=O)(=O)CC(=O)NCCc3ccccc3)c(C)o2)c1 | nt | nt | ? | nt | 1% | 0% | -10% | nt

(continued)
SMILES | Cruzain Triton | Cruzain inh noDet | SARS PLpro yeast | LASV entry inh | RE007 growth inh | NS1 inh | StopGo reporter | Marburg entry inh
O=C(CSc1nnc2sc3ccccc3n12)NCc1ccco1 | -0.1% | -6% | 1% | -6% | 16% | -13% | 13% | ?
O=C(NCCCN1CCOCC1)c1nn2c(C(F)(F)F)cc(-c3ccco3)nc2c1Cl | nt | nt | 1% | 8%[46.1 µM] | -5% | 2% | -3% | -17%[46.1 µM]
O=C1NC(=O)C2(Cc3ccccc3N3CCOCC32)C(=O)N1c1ccccc1 (stereo not drawn) | -4.9% | ? | -2% | -4% | 4% | 16% | 3% | -5%
Cc1ccc2c(=O)c(C(=O)c3ccc(F)cc3)cn(CC(=O)NCc3ccccc3Cl)c2n1 | -2.2% | 7% | nt | 0%[46.1 µM] | nt | nt | -11% | nt
COc1ccc(-n2c(C)nnc2SCC(=O)NC2CC2)cc1 | nt | nt | 5% | 15%[46.1 µM] | 11% | -6% | 1% | 2%[46.1 µM]
Cc1cc(NC(=O)CSc2nncn2N)no1 | nt | nt | 2% | 20% | -11% | nt | -3% | -19%[46.1 µM]
O=C(Oc1cc2oc(=O)c3c(c2cc1Cl)CCCC3)c1ccco1 | -0.7% | 7% | -17% | -6% | -5% | -46% | -13% | ?
CCc1ccc2[nH]c(=O)c(CN(CCN(C)C)C(=O)Nc3ccccc3OC)cc2c1 | -5.9% | 0% | 1% | -13% | -8% | 2% | -5% | -24%
Cc1cccc(-n2c3nc(=O)n(C)c(=O)c-3cc3c(C)nn(-c4ccccc4)c32)c1C | -1.1% | -2% | nt | 19%[46.1 µM] | nt | nt | -6% | -7%[46.1 µM]
Cc1csc2ncc(C(=O)Nc3ccc(C(F)(F)F)cc3)c(=O)n12 | -5.3% | 9% | 3% | nt | -6% | 1% | -24% | nt
CSc1ccc(CN(C)C(=O)CNC(=O)c2sc3ccccc3c2Cl)cc1 | nt | nt | -2% | ? | 2% | -17% | 0% | ?
O=C(C[n+]1ccncc1)c1ccccc1 | nt | nt | ? | -14% | -9% | 14% | 66%[activator] | -5%
COc1cccc(CN2CC(C(=O)NCCCCc3ccccn3)CCC2=O)c1 (stereo not drawn) | nt | nt | -1% | 1% | 3% | 3% | -5% | -1%
Cc1ccc(C)n1-c1ccccc1N1CCCCC1 | nt | nt | -1% | 19% | 2% | nt | -22% | 20%[46.1 µM]
COn1c(=O)c(-c2cccc(Br)c2)[n+]([O-])c2ccccc21 | nt | nt | nt | -1%[46.1 µM] | -3% | 13% | -10% | 24%[46.1 µM]
O=C(CN1C(=O)c2ccccc2C1=O)OCC(=O)N1CCN(c2ccccc2)CC1 | nt | nt | -3% | 6% | -4% | nt | -19% | ?
CCC(C)NC(=O)c1cn(CCOC)c(=O)c2c1c1ccccc1n2C (stereo not drawn) | nt | nt | 0% | nt | -2% | 10% | -4% | nt
CCNc1nc(NCC)n2c(SCC(=O)Nc3ccc(F)cc3[N+](=O)[O-])nnc2n1 | nt | nt | 1% | ? | 1% | 7% | -17% | nt
CCOc1ccc(-c2cn3c(n2)sc2cc(C(=O)NCCCN4CCCCCC4)ccc23)cc1 | -1.8% | 3% | nt | -2%[46.1 µM] | nt | nt | 0% | nt
COc1ccc(OC)c(N2CC(O)(c3ccccc3)[N+]3=C2SCCC3)c1 (stereo not drawn) | nt | nt | -3% | 16% | 1% | nt | -23% | ?
O=C(Cn1ccc2cc(S(=O)(=O)N3CCCCC3)ccc21)NCCc1ccc(Cl)cc1 | -8.5% | ? | nt | -19%[46.1 µM] | nt | nt | 5% | nt
Cc1ccc(C(=O)Nc2ccccc2C(=O)N2CCCC(C)C2)cc1 (stereo not drawn) | nt | nt | nt | 17% | -1% | -7% | -12% | 19%
COc1ccc(OC)c(NC(=O)CSC2=Nc3ccccc3C3=NC(CC(=O)NCCc4ccccc4)C(=O)N23)c1 (stereo not drawn) | -0.4% | ? | nt | -20%[46.1 µM] | nt | nt | 19% | nt
COc1ccc(CNC(=O)[C@H](C)NC(=O)C2CC(=O)N(c3ccc4c(c3)OCO4)C2)cc1 (stereo partly drawn) | nt | nt | 2% | nt | -13% | -6% | 4% | nt
O=C(O)C1C2C=CC(C2)C1C(=O)Nc1ccc2c(c1)OCCO2 (stereo not drawn) | 8.8% | 0% | -2% | 5% | 1% | 4% | ? | 3%
Cc1ccc(Nc2nc(CSc3nnnn3-c3ccccc3)cs2)cc1 | -0.8% | ? | nt | ? | 5% | 2% | -26% | ?
Cc1c(C)n(Cc2ccc(F)cc2)c2ccc(C(=O)NCCN3CCOCC3)cc12 | nt | nt | -3% | nt | -5% | 5% | -11% | nt

Compound profiles, as listed above.
`Cc1ccc2c(=O)c(C(=O)c3ccc(F)cc3)cn(CC(=O)NCc3ccccc3Cl)c2n1` is listed with Cruzain Triton: -2.2%; Cruzain inh noDet: 7%; SARS PLpro yeast: nt; LASV entry inh: 0%[46.1 µM]; RE007 growth inh: nt; NS1 inh: nt; StopGo reporter: -11%; Marburg entry inh: nt
`Cc1cc(NC(=O)CSc2nncn2N)no1` is listed with Cruzain Triton: nt; Cruzain inh noDet: nt; SARS PLpro yeast: 2%; LASV entry inh: 20%; RE007 growth inh: -11%; NS1 inh: nt; StopGo reporter: -3%; Marburg entry inh: -19%[46.1 µM]
`O=C(Nc1ccc(NC(=S)NC(=O)c2ccccc2Cl)cc1)c1cccc(Cl)c1` is listed with Cruzain Triton: nt; Cruzain inh noDet: nt; SARS PLpro yeast: nt; LASV entry inh: ?; RE007 growth inh: 5%; NS1 inh: nt; StopGo reporter: -13%; Marburg entry inh: ?
